# Source: PubChem BioAssay (National Center for Advancing Translational Sciences (NCATS))
# HPGD inh: HPGD (human) dehydrogenase inhibition | purified HPGD, NADH fluorescence kinetic, PGE2 substrate | Potency, µM, for the others: top-dose activity change, negative = inhibition, usual class: inhibitors | hit rate 4.3% among 150,000 | AID 894; active = well fitted inhibition curve with a large enough effect (not every such curve was filed as active); inconclusive = small, poorly fitted or top-dose-only effect, or another doubt; inactive = no such curve, though single readings can be large or run the other way;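 also: top concentration of the series not given in the record; plate controls included wells without enzyme; inactives centre near -10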
# Target sequence (P15428 whole entry, looked up): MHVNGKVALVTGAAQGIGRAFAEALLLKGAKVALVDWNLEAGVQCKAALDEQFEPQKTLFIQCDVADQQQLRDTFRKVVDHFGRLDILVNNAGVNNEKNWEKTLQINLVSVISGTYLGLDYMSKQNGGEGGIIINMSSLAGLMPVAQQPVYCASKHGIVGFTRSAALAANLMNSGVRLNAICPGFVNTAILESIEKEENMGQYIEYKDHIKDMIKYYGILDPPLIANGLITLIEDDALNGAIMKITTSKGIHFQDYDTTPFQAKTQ
#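 20 nM HPGD preincubated 15 min at room temperature with compound in 50 mM Tris-HCl pH 8, 0.01% Tween 20. Started with 1 mM NAD+ and 30 uM prostaglandin E2; NADH fluorescence (360/450 nm) read 5 times over 30-s intervals, last minus first.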
# Starred values were filed as active, the others as inactive; ? = inconclusive. % is scaled to controls: 0 for no effect and ±100 for the full control effect; potency is read from the fitted curve at half-maximal effect.
HPGD inh	Compound
-9.0%	Cc1nonc1NC(=O)CSc1nnc(-c2ccoc2C)n1-c1cccc(Cl)c1
-24.9%	Cc1ccc(/C=N/NC(=O)c2csc(C)c2)o1
-15.2%	Cc1cc(C)n(-c2nc3ccccc3n3nnnc23)n1
-3.0%	CCOC(=O)N1CCN(C(=O)CSc2nnc(Cn3c(=O)sc4ccccc43)n2C)CC1
0.6%	CCN(CC)C(=O)c1c(Cl)nc(C)c([N+](=O)[O-])c1C
?	CCc1cc2c(=O)c(-c3cnn(-c4ccccc4)c3)c(C)oc2c(CN2CCCCC2)c1O
-8.1%	Cc1c([N+](=O)[O-])c(C(=O)N2CCCC2)nn1C
?	CCOC(=O)c1c(-c2ccc(Cl)cc2)cn2ccccc12
-4.9%	O=C1c2ccccc2C(O)(Cc2ccccc2)N1c1ccc2c(c1)OCO2 (stereo unspecified)
-10.9%	CCOC(=O)c1c(-c2ccccc2)csc1NC(=O)c1cc2ccccc2oc1=O
-19.6%	CCOC(=O)C1CCN(C(=O)/C=C/c2ccccc2OC)CC1
-4.2%	COc1ccc(-c2nc3c(c4c2C[C@H](c2ccccc2)OC4)CN(C(=O)Cc2cccs2)CC3)c(C)c1
-7.6%	O=CN1CCN(C(=O)Cc2ccc([N+](=O)[O-])cc2)CC1
-13.6%	CC(C)C(=O)Nc1c(-c2cccs2)c(=O)c2ccccc2n1C
-27.8%	CCN1CCCC1CN=Cc1c(O)n(-c2ccccc2)c(=O)c2ccccc12 (stereo unspecified)
-1.9%	COCCn1nnnc1C(c1ccc(OC)c(OC)c1)N1CCN(c2nc3ccccc3s2)CC1 (stereo unspecified)
-17.7%	O=C(N/N=C/c1cccc(Oc2ccccc2)c1)c1cccc(Br)c1
-7.2%	COC(=O)c1ccc(-n2nnnc2SCC(=O)Nc2ccccc2OC)cc1
-27.3%	Cc1nn(-c2ccc(F)cc2)c2nc(N)c(C#N)c(-c3cccs3)c12
-18.6%	Cc1cc(Nc2ccccc2)nn1C(=O)c1ccc(Br)cc1
?	Clc1ccc(-c2nnc(-c3ccco3)nc2N2CCCCC2)cc1
-19.1%	Cc1cc(C)c(C(=O)CSc2n[nH]c(=O)n2C2CC2)cc1C
4.4%	O=C(O)C1CSC(CCc2ccccc2)N1 (stereo unspecified)
-7.3%	O=c1cc(-c2ccc(O)cc2)oc2c([C@H]3O[C@@H](CO)[C@@H](O)[C@@H](O)[C@@H]3O)c(O)cc(O)c12
-11.7%	COc1ccc(Cc2nc(C(=O)NCc3ccccc3OC)cs2)cc1
?	O=C(N/N=C/c1c[nH]c2ccc(Br)cc12)c1ccn(Cc2ccc(Cl)cc2Cl)n1
-15.8%	COc1ccc(C(=O)N2CCN(c3cccc(Cl)c3)CC2)c(OC)c1
-14.4%	CC(C)CSc1ncc(-c2cccc(C(F)(F)F)c2)cn1
-16.3%	O=C(c1ccc([N+](=O)[O-])cc1)[C@@H](Br)[C@@H](Br)c1ccnc2ccccc12
-0.5%	CC1CC(C)CN(Cc2nc3c(c(=O)n(C)c(=O)n3C)n2CCN2CCOCC2)C1 (stereo unspecified)
?	Cc1cc(C)c2c(c1)c(C)cc1nnc(SCC(=O)NCc3ccco3)n12
-26.6%	CCOC(=O)CNC(=O)CSc1nnc(-c2ccco2)n1Cc1ccco1
?	CCCCSC1=C(C#N)C(c2ccccc2C)C(C(=O)OCC)C(=O)N1 (stereo unspecified)
-6.3%	O=C1CC(SC(=Nc2ccccc2)Nc2ccccc2)C(=O)N1c1cccc2ccccc12 (stereo unspecified)
?	CCC(C)NCC(=O)Nc1ccc(-c2nc3cc(NC(=O)CNC(C)CC)ccc3o2)cc1 (stereo unspecified)
-9.5%	CCN1CCN(CC(=O)N/N=C/c2ccc(F)cc2F)CC1
-7.7%	CC(NC(=O)COC(=O)Cc1ccccc1[N+](=O)[O-])c1ccccc1 (stereo unspecified)
-10.3%	Cc1ccc(-n2c(Cn3nc(C(F)F)cc3C(F)F)n[nH]c2=S)cc1
-11.1%	COc1ccc(NC(=O)/C(C#N)=C/c2ccc3c(c2)n(C)c(=O)n3C)cc1
?	NC(=O)c1c(NC(=O)c2cccs2)sc2c1CCCCCC2
-3.4%	Cc1ccc(C(C(=O)NC2CCCCC2)N2CCOCC2)cc1 (stereo unspecified)
-14.8%	Cc1cc(C(=O)CSc2nnc(-c3ccc4c(c3)OCO4)o2)c(C)n1-c1ccc(F)cc1
?	CCC(CO)Nc1ncnc2c1cnn2-c1ccc(OC)cc1 (stereo unspecified)
?	CN(C)c1ccc(-c2nccc(NCc3ccccc3)n2)cc1
-11.0%	Cc1cccc(C(=O)N2CCN(c3ccc([N+](=O)[O-])c(NCc4ccco4)c3)CC2)c1
-12.3%	CCOC(=O)N1CCC(N2C(=O)c3ccccc3C2Nc2cc(OC)c(OC)c(OC)c2)CC1 (stereo unspecified)
-7.4%	CCC(c1ccc(O)cc1)C(CC)c1ccc(O)cc1 (stereo unspecified)
-6.9%	O=C(CSc1nnc(-c2ccccc2)o1)OCc1ccccc1
?	CC(C)CC[n+]1ccn(-c2nc3ccccc3nc2[N-]S(=O)(=O)c2ccccc2)c1
?	COC(=O)c1ccccc1NC(=O)c1ccc(NS(C)(=O)=O)cc1
1.8%	Cc1cc(Cl)ccc1NC(=S)Nc1cccnc1
?	COc1ccc(C2=Nn3c(nnc3-c3ccccc3)SC2)cc1OC
-27.8%	O=C(Cc1cccs1)Nc1nnc(Cc2ccccc2)s1
-6.0%	O=C(O)CN1C(=O)CC(Cc2ccccc2)C1=O (stereo unspecified)
-16.1%	Cc1ccc2[nH]c(=O)c(NC(N)=S)nc2c1
-15.5%	O=C(CCCNS(=O)(=O)c1cccc2nsnc12)N1CCCCC1
-3.2%	Cc1ccc(C(=O)NNC2=NCCC2)cc1
-9.2%	CCN(C(=O)CSc1nnc(Cn2nnc3ccccc32)o1)c1nc(-c2ccccc2)cs1
-18.7%	Cc1cccc(NC(=S)Nc2ccc(Oc3ccccc3)cc2)n1
?	COc1ccc(-c2nc(C#N)c(N3CCC(C(N)=O)CC3)o2)cc1

# The listing continues.
HPGD inh	Compound
?	COc1ccc(-c2ncc3ccccn23)cc1
-8.6%	CN(C(=S)Nc1ccccc1F)C1(c2ccccc2Cl)CCCCC1=O (stereo unspecified)
-14.3%	COc1cc(OC)nc(Oc2ccccc2C(=O)Oc2ccccc2Cl)n1
-18.2%	CCCCNCC(=O)Nc1sc(C)c(C)c1C(=O)OCC
-7.1%	O=C(CN1CCN(c2cccc(C(F)(F)F)c2)CC1)Nc1cccc(C(F)(F)F)c1
-5.5%	CCC1Oc2ccc(Cl)cc2N(CC(=O)O)C1=O (stereo unspecified)
-0.4%	CN(C)Cc1cc(C(=O)O)cc(CN(C)C)c1O
-13.2%	Cc1ccc(NC(=O)c2ccccc2F)nc1
1.7%	Cc1ccc(S(=O)(=O)N2CCN(S(C)(=O)=O)C2c2ccccc2)cc1 (stereo unspecified)
-6.8%	COc1ccc(NC(=O)CSc2c3c(nc4ccccc24)CCCC3)c(OC)c1
-18.9%	Cn1nnc2cc(C(=O)NCc3ccco3)ccc21
28.2µM*	CC[n+]1c(/C=C(\C)SC)sc2ccccc21

# Compounds shown so far containing fluorine, in the order listed:
HPGD inh	Compound
-27.3%	Cc1nn(-c2ccc(F)cc2)c2nc(N)c(C#N)c(-c3cccs3)c12
-14.4%	CC(C)CSc1ncc(-c2cccc(C(F)(F)F)c2)cn1
-9.5%	CCN1CCN(CC(=O)N/N=C/c2ccc(F)cc2F)CC1
-10.3%	Cc1ccc(-n2c(Cn3nc(C(F)F)cc3C(F)F)n[nH]c2=S)cc1
-14.8%	Cc1cc(C(=O)CSc2nnc(-c3ccc4c(c3)OCO4)o2)c(C)n1-c1ccc(F)cc1
-8.6%	CN(C(=S)Nc1ccccc1F)C1(c2ccccc2Cl)CCCCC1=O (stereo unspecified)
-7.1%	O=C(CN1CCN(c2cccc(C(F)(F)F)c2)CC1)Nc1cccc(C(F)(F)F)c1
-13.2%	Cc1ccc(NC(=O)c2ccccc2F)nc1

# Continued:
HPGD inh	Compound
-8.0%	Cc1cccc(-n2nc3c(c2NC(=O)c2ccc(Br)o2)CSC3)c1C
-15.3%	CCS(=O)(=O)NCc1ccc2[nH]c3c(c2c1)CCCC3
-23.5%	COc1ccc(C2CC(c3ccccc3OC(C)=O)=NN2C(=O)/C=C/c2ccccc2)cc1 (stereo unspecified)
-18.8%	CCC(CC)c1nnc(NC(=O)C2COc3ccccc3O2)s1 (stereo unspecified)
-6.8%	COc1cc(N)ccc1Cc1ccc(N)cc1OC
-9.2%	COc1ccccc1S(=O)Cc1ccc(C(=O)NCCc2ccc(Cl)cc2)o1 (stereo unspecified)
-0.8%	CCC1(C(=O)OC)NC(c2ccco2)C2C(=O)N(c3ccc(C)cc3)C(=O)C21 (stereo unspecified)
-17.3%	CC(C)CNC(=O)CSc1nc2scc(-c3ccccc3)c2c(=O)[nH]1
-11.8%	CCN(CC)CCNC(=O)c1c(O)c2c([nH]c1=O)CCCC2
-3.5%	N#CC1=C(N)Oc2n[nH]c(-c3ccc(F)cc3)c2C1c1cccnc1 (stereo unspecified)
-15.3%	COC(=O)C1=C(C)N(CCc2ccccc2)C(=O)/C1=C\c1ccco1
-1.1%	O=C(NCCCN1CCN(C2CCCCC2)CC1)Nc1ccccc1C(F)(F)F
-9.1%	CN(C)S(=O)(=O)N1CCC(C(=O)O)(c2ccccc2)CC1
?	CCCCC1CCC(c2nc(-c3ccccn3)no2)CC1 (stereo unspecified)
-13.0%	COc1ccc2nc(NC(=O)C(NS(=O)(=O)c3cccs3)C(C)C)sc2c1 (stereo unspecified)
?	COc1cccc(-c2csc(NC(C)=O)n2)c1
-5.7%	O=S(=O)(c1cccc(-c2nnc(SCc3ccc(Cl)cc3)o2)c1)N1CCCCC1
-9.3%	Nc1c(C(=O)c2ccc(Cl)cc2)oc2ccccc12
-7.2%	CCS(=O)(=O)N1CCN(C(=O)c2cccs2)CC1
-6.3%	CCOc1ccccc1NC(=S)N(Cc1cc2ccc(C)cc2[nH]c1=O)CC1CCCN1CC (stereo unspecified)
-7.8%	Nn1c(CSc2nc3ccccc3o2)nnc1CSc1nc2ccccc2o1
-5.5%	CCOC(=O)N1CCN(CCC(=O)Nc2cc([N+](=O)[O-])ccc2OC)CC1
-15.7%	Cc1cc2cc(CNS(=O)(=O)c3ccc4ccccc4c3)ccc2n1C
-10.8%	CCOc1ccc([N+](=O)[O-])c(N)c1
-5.2%	Cc1cc(C)n(C(=O)Cc2cn3ccsc3n2)n1
-7.3%	CC(=O)OCC(=O)[C@@]12OC3(CCCC3)OC1CC1C3CCC4=CC(=O)C=C[C@@]4(C)[C@]3(F)C(O)C[C@]12C (stereo partly specified)
?	O=C(NC(Cc1ccccc1)C(=O)Oc1ccc2c(C(F)(F)F)cc(=O)oc2c1)OCc1ccccc1 (stereo unspecified)
0.3%	COc1cc(C(=O)NCCC(=O)NCCN2CCCCCC2)cc(OC)c1OC
-16.7%	COc1ccc(C(C(O)C(=O)c2c[nH]c3ccccc23)N2CCN(c3ccc(OC)cc3)CC2)cc1 (stereo unspecified)
-7.6%	COc1ccccc1OCCCCOc1ccccc1C(C)=O
-2.4%	COc1ccc(S(=O)(=O)N2CCN(C(=O)c3cccs3)CC2)cc1
-26.7%	CCOC(=O)CSC1=C(C#N)C(c2ccc(F)cc2)C(C(C)=O)=C(C)N1 (stereo unspecified)
-6.1%	Brc1ccc2c(c1)C(c1cccs1)=NNC(c1cccnc1)=N2
-14.0%	CCC[C@@H]1C[C@@]1(CCC)C(NC(=O)c1ccco1)c1ccc(Cl)cc1 (stereo partly specified)
-23.2%	Cc1ccc(-c2nc(=S)c3c(n2Cc2ccco2)CCCC3)cc1
-18.6%	N#C/C(=N\Nc1ccccc1)C(=N)N1CCOCC1
-10.1%	O=C(Cc1ccc(Cl)cc1)Nc1ccc(N2CCCC2)cc1
?	CCN1C(=O)c2cccc3c(S(=O)(=O)Nc4ccncc4)ccc1c23
?	COc1ccccc1NC(=O)c1oc2ccccc2c1NC(=O)c1ccco1
-15.8%	NC1=NC2(CCCCC2)n2c(nc3ccccc32)N1
-11.5%	COc1cccc(C2C3=C(N=c4s/c(=C\c5ccc(O)cc5)c(=O)n42)c2ccccc2CC3)c1OC (stereo unspecified)
-19.8%	O=C(CSc1nc2ccc([N+](=O)[O-])cc2[nH]1)NC1CCCCC1
-2.1%	CCOC(=O)CCCNC(=O)N1CCc2nc(COc3ccccc3)c3c(c2C1)CO[C@@H](C)C3
-15.0%	COCCn1c(=O)[nH]c2cc(C(=O)NC3CCCCCC3)ccc2c1=O
1.6%	O=C(CSc1nnc(COc2ccc(Cl)cc2)o1)N1c2ccccc2CCc2ccccc21
?	O=C1c2cccc3cccc(c23)C(=O)N1OS(=O)(=O)c1ccc(Br)cc1
-4.0%	COc1ccccc1C/C(N)=N/O
-10.3%	C=CCSC1=N/C(=C\c2ccsc2)C(=O)S1

# Part of the list above in order of length of the SMILES, smallest number first:
HPGD inh	Compound
?	COc1ccccc1NC(=O)c1oc2ccccc2c1NC(=O)c1ccco1
-15.0%	COCCn1c(=O)[nH]c2cc(C(=O)NC3CCCCCC3)ccc2c1=O
1.6%	O=C(CSc1nnc(COc2ccc(Cl)cc2)o1)N1c2ccccc2CCc2ccccc21

# Additional results:
HPGD inh	Compound
-4.4%	Cc1oc(/N=C/c2ccc(Cl)cc2)c(C#N)c1C
-16.5%	COCCCN1C(=O)C(=O)/C(=C(/O)c2ccc(OC)cc2C)C1c1cccnc1 (stereo unspecified)
-11.2%	COCCOC(=O)C1=C(N)Oc2c(oc(CO)cc2=O)C1c1ccccc1F (stereo unspecified)
-17.9%	COc1cccc(C(=O)Nc2ccc3nc(N4CCOCC4)cc(C)c3c2)c1
-2.8%	CN(CC(=O)NCCN1CCCCCC1)S(=O)(=O)c1cccc2nsnc12
-2.0%	O=C(Nn1cnnc1)c1ccc(Br)s1
?	Cc1cc(Br)ccc1SCC(=O)OCC(=O)N1CCN(C(=O)c2ccco2)CC1

# Some of the compounds tested (hit frequency here may not be typical).
